TRPML1 ag: qHTS for Agonists of the Human Mucolipin Transient Receptor Potential 1 (TRPML1); TRPML1-expressing cells, Ca2+ dye fluorescence, FDSS; host cell line not named in the record; reference of the full effect not given here; activation, % (test concentration not listed); Mucolipin-1 (Homo sapiens), Q9GZU1; hit rate 0.12% among 410,000; in the data active = activation above about 50%; inconclusive = about 30% to 50%; inactive = below about 30%; further: 0% is about no effect; the text of the record puts the active cut at 80%
Target sequence (Q9GZU1 whole entry, looked up): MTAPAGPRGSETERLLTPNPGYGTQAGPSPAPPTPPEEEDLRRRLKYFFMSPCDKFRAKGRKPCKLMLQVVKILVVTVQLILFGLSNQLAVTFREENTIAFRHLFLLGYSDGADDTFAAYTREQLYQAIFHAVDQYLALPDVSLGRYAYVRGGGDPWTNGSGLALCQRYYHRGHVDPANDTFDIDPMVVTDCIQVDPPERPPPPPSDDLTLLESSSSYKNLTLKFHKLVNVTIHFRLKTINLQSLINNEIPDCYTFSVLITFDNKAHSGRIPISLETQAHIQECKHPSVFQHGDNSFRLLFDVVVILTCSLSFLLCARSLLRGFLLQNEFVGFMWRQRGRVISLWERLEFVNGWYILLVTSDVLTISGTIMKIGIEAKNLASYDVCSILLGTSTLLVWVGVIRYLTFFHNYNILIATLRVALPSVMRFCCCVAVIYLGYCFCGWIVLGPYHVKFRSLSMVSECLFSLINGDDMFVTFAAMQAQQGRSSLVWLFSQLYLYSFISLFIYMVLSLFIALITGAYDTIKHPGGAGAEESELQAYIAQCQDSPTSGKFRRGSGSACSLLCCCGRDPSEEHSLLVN
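Kinetic FDSS Ca2+ read in Tet-induced TRPML1-DL cells (ABD Ca8 dye plus quencher, 45-90 min RT loading): baseline, then compound, then 110 s agonist window; EC80 agonist 54-4 at 4uM final added afterwards for a 110 s antagonist window.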
TRPML1 inh: qHTS for Inhibitors of the Human Mucolipin Transient Receptor Potential 1 (TRPML1); Mucolipin-1 (Homo sapiens), Q9GZU1; TRPML1-inducible cells, Ca2+ dye fluorescence, FDSS; stronger effect = lower value; inhibition of EC80 agonist-evoked calcium signal; activity change, negative = inhibition, % (concentration not given with the values); hit rate 0.02% among 390,000; in the data active means activity change below about -50%; inconclusive means about -30% to -50%; inactive means above about -30%;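 further: stimulus is agonist 54-4 at its EC80 concentration; on the % scale 0 is the no-effect control and ±100 the full control effect; compound concentration not given in the record; the text of the record puts the active cut at -80%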
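Calcium fluorescence in TRPML1-DL cells induced overnight with Tet: a 110 s read after compound pin addition, then a 110 s antagonist read after challenge with 54-4 at 4 uM final (EC80).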
PINK1 modulator: A Quantitative High throughput Screen to Identify Chemical Modulators of PINK1 Expression; PINK1 immunofluorescence, high-content cytometry, 24 h; Potency, µM (top dose mostly 76.6 µM), for the others: top-dose activation (PINK1 increase), most hits filed as activators; hit rate 0.2% among 410,000; AID 624263, 2012; active = well fitted activation curve with a large enough effect; inconclusive = small, poorly fitted or top-dose-only effect; inactive = flat fitted curve, though single readings scatter; cell line not stated here;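 further: potency means the concentration at half of the fitted maximal effect; % of control where 0% means no effect; nearly all actives have a fitted effect of over 65% in size; a mitochondrial uncoupler was the plate control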
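Readout is PINK1 immunofluorescence, quantified alongside mitochondrial, cell and nuclear markers by laser-scanning microplate cytometry. Cells from a stable line were exposed to compound titrations (5 concentrations) for 24 hours, with CCCP controls.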
D2 PAM: Beta-Arrestin HTS for Positive Allosteric Modulators of the Human D2 Dopamine Receptor: Potentiators. DiscoveRx D2 beta-arrestin cells, luminescence, 90 min; 100% = 57 uM dopamine signal. potentiation, % (test concentration not listed). hit rate 0.23% among 360,000; active = potentiation of 50% or more; inconclusive = 30% to 50%; inactive = 30% or less;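 further: compound concentration not given in the record; tested on top of an EC20 dose of dopamine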
Target sequence (P14416 whole entry, looked up): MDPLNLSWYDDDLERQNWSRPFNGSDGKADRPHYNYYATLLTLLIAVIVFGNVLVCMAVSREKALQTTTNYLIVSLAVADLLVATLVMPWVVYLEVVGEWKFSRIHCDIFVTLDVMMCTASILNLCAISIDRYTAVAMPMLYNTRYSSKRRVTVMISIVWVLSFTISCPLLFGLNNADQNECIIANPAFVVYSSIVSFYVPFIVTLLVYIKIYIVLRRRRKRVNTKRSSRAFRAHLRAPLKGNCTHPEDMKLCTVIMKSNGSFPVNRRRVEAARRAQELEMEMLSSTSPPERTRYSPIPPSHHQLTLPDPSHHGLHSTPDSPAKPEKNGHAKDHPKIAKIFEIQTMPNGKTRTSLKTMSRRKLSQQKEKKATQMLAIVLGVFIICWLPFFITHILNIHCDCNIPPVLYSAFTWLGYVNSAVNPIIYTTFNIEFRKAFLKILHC
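PathHunter beta-arrestin assay in DiscoveRx D2 cells. Compounds were added with an EC20 of dopamine (50 nM final) for 90 min at 37 deg C. Luminescence was read 1 h after detection reagent, with 57 uM dopamine as the EC100 control.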
D2 ag: Beta-Arrestin HTS for Positive Allosteric Modulators of the Human D2 Dopamine Receptor: Agonists; D(2) dopamine receptor (Homo sapiens), P14416; DiscoveRx PathHunter D2 beta-arrestin, luminescence, 90 min; 100% = 57 uM dopamine signal; activation, % (no concentration beside the values); hit rate 0.084% among 360,000; in the data active = activation above about 40%; inconclusive = about 15% to 40%; inactive = below about 15%; further: compound concentration not given in the record; the text of the record calls up to 30% inactive
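Agonist mode: compounds alone added to overnight-plated D2 PathHunter cells for 90 min at 37 C, with 57 uM final dopamine (EC100) defining full response. Beta-arrestin recruitment detected by chemiluminescent reagent, read after 1 h at ambient temperature.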
Six1-Eya2 inh: qHTS Assay for Inhibitors of the Six1/Eya2 Interaction. Homeobox protein SIX1 (Homo sapiens) + Protein phosphatase EYA2 (Homo sapiens), …. AlphaScreen GST-Six1/His-Eya2 binding, biochemical; stronger effect = lower value; control for the full effect not named in the record. activity change, % (no concentration beside the values). hit rate 0.56% among 360,000. AID 651725, 2012; in the data active = activity change below about -65%; inconclusive = about -30% to -65%; inactive = above about -30%; further: on the % scale 0 is the no-effect control and ±100 the full control effect; compound concentration not given in the record
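AlphaScreen luminescence read after one hour at 37 °C in darkness. Pin-transferred compounds met GST-Six1 and His-Eya2 protein (5X stock 250 nM/500 nM) plus glutathione donor and Ni-chelate acceptor beads (5X, 50 ug/mL).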
Starred values were filed as active, the others as inactive; ? = inconclusive; . = not tested or not shown; & = joins results of further samples; [ ] = another dose, or the depositor's remark.

Value order – TRPML1 ag | TRPML1 inh | PINK1 modulator | D2 PAM | D2 ag | Six1-Eya2 inh
- COC(=O)c1sc2nc(C)c([N+](=O)[O-])c(C)c2c1N
    1.0 | -5 | -2.2% | -9 | -0.6 | -18
- C=CCn1c(=NC(=O)CC)n(C)c2ccccc21
    0.1 | -10 | 0.8% | -7 | -0.1 | 10
- O=C(NC1CCCCCCC1)C1CCN(S(=O)(=O)N2CCCC2)CC1
    -0.2 | 20 | -6.2%[38.3 µM] | -12 | -2.1 | 4
- Cn1nc(C(=O)OCC(=O)N(Cc2ccccc2)C(C)(C)C)c2ccccc2c1=O
    -0.5 | -14 | 0.2% | -8 | -5.4 | -11
- COCCN(C(=O)COC(=O)C1CC(=O)N(c2ccc(C)cc2)C1)c1c(N)n(Cc2ccccc2)c(=O)[nH]c1=O (configuration not stated)
    -0.2 | 35 | 0.8% | -9 | -3.0 | 11
- O=C(Cc1ccc(-n2cccc2)cc1)NC1CCCCCC1
    0.0 | 5 | 3.7%[38.3 µM] | 1 | -2.5 | -9
- NCc1nc2cccnc2n1Cc1ccccc1Cl
    -0.2 | 18 | 2.7% | . | . | .
- CCCS(=O)(=O)N1CCN(S(=O)(=O)c2ccccc2)CC1
    1.0 | 5 | -4.8% | 10 | -3.0 | 4
- CCOc1cc(/C=C2/C(=O)ON=C2C)ccc1O
    . | . | 0.6% | 7 | -1.3 | 6
- C[C@@]12C(=O)Nc3ccc(Br)cc3C(=O)N1[C@H]1c3cc(Cl)ccc3OC[C@@H]1[C@@H]2c1ccccc1
    2.1 | 5 | 2.4% | -11 | -2.6 | -3
- O=C(c1cccc(Cl)c1)N1CCC(c2nc3ccccc3[nH]2)CC1
    -0.7 | -11 | 2.0% | -4 | 0.2 | 0
- Cn1c(=O)c2c(ncn2CC(=O)Nc2cc(S(=O)(=O)N3CCCCC3)ccc2O)n(C)c1=O
    -0.1 | 15 | 0.4% | -26 | -3.9 | 5
- CCCN(C)C1CN(Cc2cn(Cc3ccccc3)nn2)S(=O)(=O)C1 (configuration not stated)
    -0.3 | . | -1.4% | . | . | 1
- CCCC(=O)N1CCN(c2ccc(NC(=S)NC(=O)c3cccc(C)c3)cc2)CC1
    -1.0 | 7 | 0.3% | 1 | -3.2 | -22
- COc1ccc(CN(C(=O)Nc2cccc(OC)c2)C2CCN(C(C)=O)CC2)cc1
    -0.2 | 4 | 1.3% | . | . | .
- Cc1ccc2nc(NC(=O)CSc3nnc(C)c(=O)n3N)sc2c1
    0.4 | 9 | ? | -16 | -1.7 | 15
- CC(=O)Nc1c2c(nn1-c1ccc(C)cc1C)CS(=O)C2 (configuration not stated)
    0.5 | -10 | 1.5% | -3 | 1.5 | 1
- COc1ccc(-c2n[nH]c3c2C(c2ccc(O)cc2)N(c2ccc(Br)cc2)C3=O)cc1 (configuration not stated)
    0.2 | 12 | 3.5% | . | . | .
- CC(OC(=O)c1cc[n+]([O-])cc1)C(=O)NCc1ccccc1 (configuration not stated)
    -0.2 | -6 | -0.5% | -5 | -3.5 | 2
- CCOc1ccc(-c2noc(COC)n2)cc1OC
    1.7 | 2 | -0.7% | -6 | -2.6 | 0
- COC(CN(C(=O)CCl)C(C(=O)NC1CCCC(C)C1C)c1ccc(C)cc1)OC (configuration not stated)
    -0.3 | -6 | ? | -10 | -4.0 | 13
- Cc1ccc(NS(=O)(=O)c2cc3[nH]c(=O)c(=O)[nH]c3cc2C)cc1Cl
    1.8 | -16 | 3.5% | . | . | .
- O=C(Nc1ccccc1C(=O)Nc1ccccc1)c1ccccc1F
    1.9 | 38 | 4.7% | -3 | -2.4 | 6
- Cc1ccc(N2CC(NC(=O)C(=O)c3c(C)[nH]c4ccccc34)CC2=O)cc1C (configuration not stated)
    5.4 | 20 | -4.8% | -18 | 1.7 | -6
- CS(=O)(=O)c1ccc(NCCc2ccccn2)c([N+](=O)[O-])c1
    -0.2 | 3 | -0.5% | 2 | -2.0 | 2
- Cc1ccc(/C=N/NC(=O)c2cc(C)oc2C)o1
    -1.0 | -14 | -1.4% | 18 | -0.4 | -4
- COc1ccc(NS(=O)(=O)c2cccc(C(=O)N/N=C/c3cn(-c4ccccc4)nc3-c3ccc(OC)cc3)c2)cc1
    0.8 | 19 | 4.5% | -16 | 1.6 | 21
- Cc1nc(NC(=O)CCc2ccccc2)ccc1Br
    -0.6 | -3 | 3.0% | -37 | -3.8 | -18
- O=C(NNS(=O)(=O)c1ccccc1)c1ccccc1-n1cccc1
    -0.3 | 14 | -0.8% | -2 | -3.0 | 9
- O=C(O)CCCCCNC(=O)CCn1nnc2ccccc2c1=O
    -1.1 | -13 | -5.0% | 1 | 0.4 | 8
- CN(C)/C=N/C(=S)Nc1ccccc1F
    -0.3 | -8 | 1.9% | -14 | -3.9 | 0
- CN(CC(=O)Nc1ncn[nH]1)S(=O)(=O)c1ccc(Br)cc1
    -0.4 | -2 | -1.4% | 7 | -2.8 | -1
- CCOC(=O)[C@H]1[C@H]2COc3ccc(Cl)cc3[C@@H]2N2C(=O)CN(Cc3ccc(Cl)cc3)C(=O)[C@@]12C
    0.2 | 3 | 0.3% | -5 | 1.1 | -2
- COc1ccc(O)c(C(=O)c2cc(C#N)c(=O)n(Cc3ccccc3)c2)c1
    -0.3 | -12 | -0.4% | 12 | 6.1 | -7
- O=C(CNC(=O)c1nn(Cc2ccccc2)c(=O)c2ccccc12)Nc1ccc(F)c(F)c1F
    3.4 | -1 | 7.4% | 0 | -1.6 | 8
- Cc1ccc2c(CN3CCN(S(=O)(=O)c4ccccc4C(F)(F)F)CC3)cc(=O)oc2c1
    -0.1 | 1 | 0.3% | -10 | 1.8 | -17
- COc1ccc(N2CCN(C(=O)COc3ccc4c(C)cc(=O)oc4c3)CC2)cc1
    0.5 | 4 | -0.5% | 5 | -1.9 | -13
- CCCS(=O)(=O)NC(=O)C1(C)CCCN(C(=O)c2cccc(C)c2C)C1 (configuration not stated)
    -0.6 | . | 5.2% | -1 | -4.2 | 2
- CC1(C(=O)Nc2ccc3c(c2)OCO3)CCN1Cc1cccc2c1OCO2 (configuration not stated)
    -1.2 | . | 1.5% | -3 | -3.1 | -25
- COc1ccc(/C=C/c2c([N+](=O)[O-])c(=O)n(C)c(=O)n2C)c(OC)c1OC
    1.5 | 7 | -2.4% | -1 | 3.1 | 15
- O=C(CNS(=O)(=O)c1cccs1)NCc1ccc(F)cc1
    -0.3 | -12 | -0.6% | -6 | -0.6 | 7
- Cc1ccc(NC(=O)CN(C)C2CCCCC2)cc1Br
    -0.4 | -3 | 26% | -12 | 1.2 | 0
- O=C(C[n+]1ccc(Cc2ccccc2)cc1)Nc1ccccc1
    -0.1 | 35 | -1.6% | -6 | 0.2 | 8
- O=C(O)c1ccc(COc2ccc3c4c(c(=O)oc3c2)CCC4)o1
    3.8 | -6 | -0.5% | -32 | -2.2 | -17
- Cc1ccc(C(C)C)cc1OCC(=O)N1CCN(C(=O)c2ccco2)CC1
    -0.7 | -2 | -2.4% | -5 | -4.1 | 0
- O=S1(=O)N=C(N/N=C/c2ccccn2)c2ccccc21
    0.0 | -9 | -1.6% | -6 | 1.3 | -88*
- CN(CC(=O)Nc1ccccc1Oc1ccccc1)Cc1ccccc1F
    4.1 | -1 | ? | 7 | -1.6 | 14
- CC(C)CC(=O)NC(=S)Nc1cccc2nsnc12
    0.6 | 3 | 3.5% | -1 | 1.4 | -7
- COc1ccccc1/C=C/[C@@H]1C[C@H]2CN(Cc3cccc(Cl)c3)C(=O)[C@]23CCCN13
    0.2 | 1 | ? | -10 | -3.2 | -5
- COc1ccc(CC(NC(C)=O)C(=O)NC2CCN(C(=O)c3ccccc3F)CC2)cc1 (configuration not stated)
    -1.0 | 4 | 4.5% | 6 | -3.3 | 4
- COc1ccc(-c2cc(=O)c3c(O)c(OC)c(OC)c(OC)c3o2)cc1
    0.0 | 8 | 17%&5.5% | -22 | 0.2 | -7
- COc1cccc(C(=O)OC(C)CN2CCCC2)c1 (configuration not stated)
    1.8 | 9 | 1.6% | -6 | -0.8 | 2
- COc1cc(C(c2c(C)[nH][nH]c2=O)c2c(C)[nH][nH]c2=O)ccc1OCc1ccc([N+](=O)[O-])cc1
    -0.3 | 31 | -1.9% | 4 | -1.7 | -5
- CC(C)/C=N/NC(=O)c1ccc(Cl)cc1
    0.1 | -10 | 0.2% | -16 | -3.6 | 0
- COc1ccc(C2/C=C\CN(C(=O)c3ccccc3)CC(=O)N2Cc2cccc(F)c2)cc1 (configuration not stated)
    -0.4 | 18 | 0.5% | . | 2.5 | 1
- Oc1ccc(/C=N/Nc2ccc(Cl)nn2)c(O)c1O
    -0.1 | 0 | -0.9% | 15 | 50* | -95*
- CC1=C(C)C(=O)N(C(C)CCc2ccccc2)C1=O (configuration not stated)
    -0.3 | 25 | 0.5% | -3 | -2.8 | 3
- O=C(CN1C(=O)C2CCCCC2C1=O)Nc1cc([N+](=O)[O-])ccc1F (configuration not stated)
    -0.5 | 15 | 1.1% | -1 | 0.6 | -3
- COc1ccc(/C=N/NC(=O)c2cc(C)oc2C)cc1OC
    -0.9 | 6 | 1.1% | -7 | 0.0 | -14
- COc1ccc(C(=O)NCCSCc2ccccc2Cl)cc1OC
    1.6 | -7 | 1.3% | -18 | -2.8 | -10

Two of these compounds, set out differently:
Molecule	TRPML1 ag	TRPML1 inh	PINK1 modulator	D2 PAM	D2 ag	Six1-Eya2 inh
COc1ccc(-c2cc(=O)c3c(O)c(OC)c(OC)c(OC)c3o2)cc1	0.0	8	17%&5.5%	-22	0.2	-7
COc1ccc(N2CCN(C(=O)COc3ccc4c(C)cc(=O)oc4c3)CC2)cc1	0.5	4	-0.5%	5	-1.9	-13

Next section.
Value order – TRPML1 ag | TRPML1 inh | PINK1 modulator | D2 PAM | D2 ag | Six1-Eya2 inh
- CCOc1ccc(NS(=O)(=O)c2ccc3[nH]cc(C(=O)NC(C)CC)c(=O)c3c2)cc1 (configuration not stated)
    -0.7 | 10 | 0.9% | ? | -1.0 | -7
- O=c1ccc2cc(S(=O)(=O)N3CCN(c4ccccc4F)CC3)ccc2o1
    -0.8 | 16 | 1.2% | 9 | -1.7 | -2
- O=C(COc1ccc(S(=O)(=O)N2CCOCC2)cc1Cl)NCc1ccc2c(c1)OCO2
    -0.1 | 0 | -1.2% | -11 | -3.6 | 1
- C=CCn1c(=N)n(CC(=O)OC)c2ccccc21
    0.5 | 12 | 0.4% | -12 | 2.5 | -4

Not a hit list; any-hit rate near 1%.
